Calb biofilm kill – clotrimazole potentiators killing C. albicans biofilm, primary screen, 4-compound mixtures | inhibition, % at 7.6 µM | 120,000 tested, 0.02% active | C. albicans biofilm persisters + clotrimazole, fluorescence viability; primary screen in compound mixtures of four per well;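 active = inhibition above 30.3% in the primary screen of four-compound pools, then above 30% when the compound was retested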;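 also: compounds exposed to preformed 24 h biofilms for 48 h; the number belongs to the whole pool; some results filed as inactive read as strong as hits; inactives centre near 12; 0% = biofilm with clotrimazole alone and 100% = kill control; retested singly at about 60 µM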
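Incubation: 24 h biofilm formation, then 48 h compound exposure, 37 °C | Material: C. albicans biofilms | Buffer or medium: RPMI/MOPS medium, pH 7.0 | Measured by: 2-h Alamar Blue fluorescence, 535/590 nm excitation/emission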
Active calls of the source: *. A portion of the library; rates above refer to the full screens.

Sample of the layout:
SMILES	Calb biofilm kill
Cc1cc(OC(=O)N(C)C)n(-c2ccccc2)n1	9
COc1cc(CN=C(C)c2c(O)n(C)c(=O)n(C)c2=O)cc(OC)c1	6

This part in full, from the start:
SMILES	Calb biofilm kill
Cc1cc(OC(=O)N(C)C)n(-c2ccccc2)n1	9
COc1cc(CN=C(C)c2c(O)n(C)c(=O)n(C)c2=O)cc(OC)c1	6
Cn1c(O)c(C=NC2CCN(Cc3ccccc3)CC2)c(=O)[nH]c1=O	29
CCOC(=O)c1c(C)n(C(C)C)c2ccc(OC(=O)c3ccc(N4C(=O)CCC4=O)cc3)cc12	18
O=C1NC(=O)N(Cc2ccc(F)cc2)C(=O)/C1=C/c1cccs1	11
O=C(NC1CN2CCC1CC2)c1cc(Cl)c([N+](=O)[O-])c2nc[nH]c12 (stereo not drawn)	10
COc1ccc(OCC#CCN2CCC(C)CC2)cc1	2
CCCCn1c(=O)c(C=Nc2ccc(Cl)cc2)c(O)n(Cc2ccco2)c1=O	19
Cc1ccc(CN2CCN(Cc3ccccc3)CC2)cc1	21
C=CC1CN2CCC1CC2C(OC(C)=O)c1ccnc2ccc(OC)cc12 (stereo not drawn)	12
COc1ccc(/C=C2\C(=O)NC(=S)N(C)C2=O)cc1C	16
CN1CCN(c2ncnc3c2cnn3C)CC1	9
CCOC(=O)CC(NC(=O)C(Cc1ccc(N(CCCl)CCCl)cc1)NC(C)=O)C(=O)OCC (stereo not drawn)	4
CCCOP(=O)(OCCC)C(NC(=O)c1ccccc1)=C(Cl)Cl	10
c1ccc2nc(OCCN3CC3)ccc2c1	28
O=C(C(=O)N1CCOCC1)c1cn(CCCOc2ccccc2)c2ccccc12	3
COc1ccc(C(C)=O)cc1CC(C(=O)c1ccc(C)c(C)c1)N(C)C (stereo not drawn)	16
CCN(CC)c1ccc(N=Cc2c(O)n(Cc3ccccc3)c(=O)[nH]c2=O)cc1	15
CCc1ccc(C2=NN(CCC(=O)N3CCC4(CC3)OCCO4)C(=O)CC2)cc1	10
CNC(=O)c1cccn(Cc2cc(C(F)(F)F)cc(C(F)(F)F)c2)c1=O	2
c1ccc(CC(NCc2ccco2)c2ccccc2)cc1 (stereo not drawn)	5
CC(=O)CC(=O)C1C(=O)N(C)C(=O)N(C)C1=O	6
CC(=NCCC1=CCCCC1)c1c(O)n(-c2ccccc2)c(=O)[nH]c1=O	5
O=C(C(=O)N1CCOCC1)c1cn(Cc2ccccc2Cl)c2ccccc12	14
Cc1cc(C(=O)Nc2ccc3c(c2)OCCO3)nn1C(C)(C)C	13
O=C1NC(=O)N(Cc2ccco2)C(=O)/C1=C/c1cccn1CCOc1ccccc1Cl	5
CCCCn1c(O)c(/C=N/N2CCCCC2c2cccnc2)c(=O)[nH]c1=S (stereo not drawn)	8
CC/C(=N\N1CCCCCC1)c1c(O)n(-c2ccccc2C)c(=O)[nH]c1=O	14
Cc1nc2ccccc2c(=O)n1-c1ccc(F)cc1F	9
CC(C)OP(=O)(OC(C)C)C(O)c1ccc(Br)cc1 (stereo not drawn)	20
CCOP(=S)(OCC)N1CCOCCOCCN(P(=S)(OCC)OCC)CCOCCOCC1	5
O=c1[nH]c(O)c(N=Nc2ccc(S(=O)(=O)N3CCOCC3)cc2)c(=O)[nH]1	24
Cc1ccc(N2C(=O)NC(=O)/C(=C/c3ccc(-c4ccc(C(=O)O)c(Cl)c4)o3)C2=O)cc1	21
Cc1cccc(-n2c(O)c(/C=C/C=Nc3ccccc3)c(=O)[nH]c2=O)c1	13
CC12CC[C@H]3[C@@H](CCC4(O)C[C@H](O)CCC34/C=N/NC(=O)c3ccc(O)cc3)C1(O)CCC2C1=CC(=O)OC1 (stereo partly drawn)	4
COc1ccc(NP(=O)(Oc2cccc(C)c2)Oc2cccc(C)c2)cc1OC	17
CN1CCCC(C(=O)c2ccc(Cl)cc2)C1 (stereo not drawn)	15
O=C(N/N=C/c1c(O)n(CCc2ccc(F)cc2)c(=O)[nH]c1=O)c1ccncc1	-8
Cc1c(C=C2C(=O)NC(=O)NC2=O)c(=O)n(-c2ccccc2)n1C	9
O=[N+]([O-])c1ccc(N2CCOCC2)c2cccnc12	11
O=C(Nc1cccc(OC(=O)N2CCCCC2)c1)N1CCOCC1	6
CCN1C(=O)C(=Cc2cc(C)n(C3CC3)c2C)C(=O)N(CC)C1=S	7
NC(N)=N/N=C/c1ccc(N2CCOCC2)cc1	-2
C1=C(c2c[nH]c3ccccc23)CCN(Cc2ccccc2)C1	11
COc1cc(C(CN)CC(=O)O)ccc1O (stereo not drawn)	29
O=C(O)c1ccccc1N=Nc1c(O)[nH]c(=O)[nH]c1=O	15
O=C1CCCN1c1ccc(S(=O)(=O)O)cc1 (tested in a mixture with another compound)	14
CC(=O)N1N=C2C3CCN(CC3)C2C1c1ccc(F)cc1 (stereo not drawn)	16
O=C1/C(=C\c2ccc([N+](=O)[O-])cc2)N2CCC1CC2	5
CC(=O)Nc1ccc(N=Cc2c(O)n(Cc3ccco3)c(=O)[nH]c2=O)cc1	23
O=C(N/N=C/c1c(O)n(-c2ccccc2)c(=O)[nH]c1=O)c1ccncc1	14
COCCN1C(=O)NC(=O)/C(=C\c2ccc(F)cc2)C1=O	12
Cc1ccc(NC(=O)c2cc(-c3ccccc3)n(CCCN3CCOCC3)c2C)cc1	19
O=[As](O)(O)c1ccc(N=Nc2ccc(O)cc2)cc1	13
CCn1nc(/C=C/c2ccccc2)nc2c(=O)n(C)c(=O)nc1-2	7
Cc1ccccc1CN1CCN(c2ccc(Cl)cc2)CC1	3
CN(C)c1ccc(/C=C2\CC3C4CC=C5CC(O)CCC5(C)C4CCC3(C)C2=O)cc1 (stereo not drawn)	12
CCOc1cc(CNCCc2c[nH]c3ccccc23)cc(Cl)c1OCC	14
Cc1cc(OCCN2CC2)c2ccccc2n1	14
CNC(=O)Oc1ccc(N(C)C)cc1C(C)C	14

20 consecutive records from above:
SMILES	Calb biofilm kill
O=C(N/N=C/c1c(O)n(CCc2ccc(F)cc2)c(=O)[nH]c1=O)c1ccncc1	-8
Cc1c(C=C2C(=O)NC(=O)NC2=O)c(=O)n(-c2ccccc2)n1C	9
O=[N+]([O-])c1ccc(N2CCOCC2)c2cccnc12	11
O=C(Nc1cccc(OC(=O)N2CCCCC2)c1)N1CCOCC1	6
CCN1C(=O)C(=Cc2cc(C)n(C3CC3)c2C)C(=O)N(CC)C1=S	7
NC(N)=N/N=C/c1ccc(N2CCOCC2)cc1	-2
C1=C(c2c[nH]c3ccccc23)CCN(Cc2ccccc2)C1	11
COc1cc(C(CN)CC(=O)O)ccc1O (stereo not drawn)	29
O=C(O)c1ccccc1N=Nc1c(O)[nH]c(=O)[nH]c1=O	15
O=C1CCCN1c1ccc(S(=O)(=O)O)cc1 (tested in a mixture with another compound)	14
CC(=O)N1N=C2C3CCN(CC3)C2C1c1ccc(F)cc1 (stereo not drawn)	16
O=C1/C(=C\c2ccc([N+](=O)[O-])cc2)N2CCC1CC2	5
CC(=O)Nc1ccc(N=Cc2c(O)n(Cc3ccco3)c(=O)[nH]c2=O)cc1	23
O=C(N/N=C/c1c(O)n(-c2ccccc2)c(=O)[nH]c1=O)c1ccncc1	14
COCCN1C(=O)NC(=O)/C(=C\c2ccc(F)cc2)C1=O	12
Cc1ccc(NC(=O)c2cc(-c3ccccc3)n(CCCN3CCOCC3)c2C)cc1	19
O=[As](O)(O)c1ccc(N=Nc2ccc(O)cc2)cc1	13
CCn1nc(/C=C/c2ccccc2)nc2c(=O)n(C)c(=O)nc1-2	7
Cc1ccccc1CN1CCN(c2ccc(Cl)cc2)CC1	3
CN(C)c1ccc(/C=C2\CC3C4CC=C5CC(O)CCC5(C)C4CCC3(C)C2=O)cc1 (stereo not drawn)	12

Going on with the list:
SMILES	Calb biofilm kill
CCN(CC)c1ccc(/C=C/[N+](=O)[O-])cc1	11
CCOC(=O)c1c(C)n(C(C)C)c2ccc(OC)cc12	22
CCN(CC)C(=O)c1ccc(NC(=O)c2ccc(-c3nn(C)c(=O)c4ccccc34)cc2)cc1	11
CN1CC(C(=O)c2ccc(Cl)cc2)C(c2ccccc2F)C1 (stereo not drawn)	9
CCOP(=O)(OCC)C(NC(=O)c1ccc(C)cc1)C(Cl)(Cl)Cl (stereo not drawn)	6
Cc1cc(=O)n(-c2ccccc2)n1-c1ccccc1	6
CCc1ccc(N2C(=O)NC(=O)/C(=C/c3cccn3CCOc3ccc(C(C)CC)cc3)C2=O)cc1 (stereo not drawn)	7
C=CC1CN2CCC1CC2[C@@H](OC(=O)c1ccc(OC)cc1)c1ccnc2ccccc12 (stereo partly drawn)	15
C1=C(c2ccccc2)CCNC1	14
C[n+]1c(-c2ccccc2)cc(CCCCc2cc(-c3ccccc3)[n+](C)c(-c3ccccc3)c2)cc1-c1ccccc1	13
CCc1ccc2nc(N3CCC(C(=O)N4CCC5(CC4)OCCO5)CC3)sc2c1	22
N#CC(C#N)=Cc1ccc(N2CCOCC2)cc1	14
COc1ccc2[nH]cc(CCN)c2c1	5
CCN(CC)c1ccc(/C=C2\C(=O)NC(=O)N(Cc3ccco3)C2=O)cc1	17
N#CC(C#N)=Cc1cccnc1	10
C=CCn1c(O)c(C(CC)=Nc2ccc3c(c2)CCC3)c(=O)[nH]c1=O	28
COc1ccc(C2N(c3cc(C)on3)C(=O)C3CCCN32)cc1 (stereo not drawn)	10
c1ccc(-c2[nH]c(-c3ccccc3)[n+](CC3CO3)c2-c2ccccc2)cc1 (stereo not drawn)	13
COc1ccc(N2C(=O)/C(=C/c3cccs3)C(=O)NC2=S)cc1	26
CC(=NCCc1c[nH]c2ccccc12)c1c(O)n(Cc2ccccc2)c(=O)[nH]c1=O	29
O=C(NC1CONC1=O)OCC(Cl)(Cl)Cl (stereo not drawn)	17
CNC(=S)N1CCn2cccc2C1c1cccnc1 (stereo not drawn)	14
CC1CC(OP(O)(=S)c2ccc(N(C)C)cc2NC(=O)c2cccs2)CC(C)(C)C1 (stereo not drawn)	9
CC(Cc1cccs1)NCc1ccc(Cl)cc1 (stereo not drawn)	4
C[N+]1(C)[C@@H]2CC[C@H]1CC(OC(=O)C(CO)c1ccccc1)C2 (stereo partly drawn)	19
CCNC(=S)NCCC1=c2ccccc2=N/C1=C\c1c(O)n(C)c(=O)n(C)c1=O	14
CCOC(=O)c1ccc(N=Cc2c(O)n(-c3ccccc3F)c(=S)[nH]c2=O)cc1	2
COCCCn1c(N)c(C(=O)NCc2ccco2)c2nc3ccccc3nc21	21
CCCCCCC(=O)c1c(O)n(-c2ccccc2OC)c(=O)[nH]c1=O (tested in a mixture with another compound)	18
CCCCCCC(=O)c1c(O)n(-c2ccccc2OC)c(=O)[nH]c1=O	17
N#CC1(c2ccccc2)CCN(C2CC(=O)N(c3ccc(F)cc3)C2=O)CC1 (stereo not drawn)	5
COc1cc(OC)c(OC)cc1/C=C1/C(=O)NC(=O)N(Cc2ccccc2)C1=O	19
CC(Cc1ccsc1)NCc1cn[nH]c1-c1ccc(F)cc1F (stereo not drawn)	27
O=C(Oc1ccc([N+](=O)[O-])cc1)N1CCC(N2CCCCC2)CC1	-2
CO[C@H]1[C@@H](OC)CC(OC2OC(CO)C(O)C(O)C2O)/C(=C\C#N)[C@@H]1O (stereo partly drawn)	5
O=P(NCc1ccccc1)(Oc1ccccc1)Oc1ccccc1	-3
Cc1ccsc1C(=O)C1CCCN(Cc2cnc(N3CCCC3)s2)C1 (stereo not drawn)	24
CNC(=O)O/N=C(\C)Cc1nnn(-c2cc(C)on2)n1	9
O=C1NC(=O)N(CCc2ccc(F)cc2)C(=O)/C1=C/c1cccs1	20
COc1cc(C=C2C(=O)NC(=O)NC2=O)ccc1O	24
Cc1ccc(N2C(=O)NC(=O)/C(=C\c3ccc([N+](=O)[O-])o3)C2=O)cc1	2
Cc1cccn2c(=O)c3c(nc12)N1CCCCC1C1(C3)C(=O)N(C)C(=O)N(C)C1=O (stereo not drawn)	25
COc1ccc(S(=O)(=O)N2CC3CC(C2)c2cccc(=O)n2C3)cc1 (stereo not drawn)	24
O=S(=O)(c1ccc(F)cc1)N1CCCCC1c1cccnc1 (stereo not drawn)	16
CC1=C2C(=O)C3C(CC=C4CC(OC5OC(O)C(O)C(O)C5CO)CCC43C)C2CCC12OC1CC(C)CNC1C2C (stereo not drawn)	12
COc1ccccc1OCC#CCN1CCCCCC1	13
O=C(O)c1cn(Cc2ccccc2)nc1-c1ccccc1	19
O=c1c2ccccc2nc(/C=C/c2ccc(O)cc2)n1-c1cccc(O)c1	-10
CC(=O)N1CC(=O)Nc2ccc(Cl)cc2C1c1ccc(F)cc1 (stereo not drawn)	8
Nc1ccccc1C(=O)OCC(=O)c1ccc2c(c1)OCCO2	10
Clc1ccc(C2NCCc3[nH]cnc32)cc1 (stereo not drawn)	-4
c1ccc(P(c2ccccc2)c2ccccn2)cc1	27
O=C(CN1CC=C(c2ccccc2)CC1)NC(=O)NC1CCCCC1	12
COc1ccc(-n2c(O)c(C(C)=NCC3CCCO3)c(=O)[nH]c2=O)cc1 (stereo not drawn)	1
COc1ccc(-n2c(Cc3cccc([N+](=O)[O-])c3)nc3ccccc3c2=O)cc1	7
O=c1[nH]c(CN2CC=C(c3ccccc3)CC2)nc2scc(-c3cccs3)c12	24
Cc1ccccc1-n1c(O)c(/C=C2/C(c3ccccc3)=Nc3ccccc32)c(=O)[nH]c1=O	-13
COc1ccc(-n2c(O)c(C=NCCN(C)C)c(=O)[nH]c2=O)cc1	23
CC(C)(C)n1cccc1/C=C1\C(=O)NC(=O)N(c2ccccc2)C1=O	8
Cc1cc(/C=C2/C(=O)NC(=O)N(Cc3ccco3)C2=O)c(C)n1-c1ccccc1	12
CC(C)n1c(=O)c(C=Nc2ccc(Br)cc2)c(O)n(Cc2ccco2)c1=O	10
